# Compound activity: PubChem BioAssay, several laboratories
# UCH37 DUB inh = inhibitors of human UCH37 deubiquitinase, primary screen, biochemical, Ub-AMC cleavage, fluorescence | Ubiquitin carboxyl-terminal hydrolase isozyme L5 (Homo sapiens), Q9Y5K5 | inhibition, % (no concentration beside the values) | purified proteasome/UCH37 | actives 0.33% (n = 330,000);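 active means mean of two replicates above 20%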;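 further: 0% = compound-free wells with enzyme and 100% = wells lacking proteasome; stock transfer was 100 nL into about 20 µL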
# Target sequence (Q9Y5K5 whole entry, looked up): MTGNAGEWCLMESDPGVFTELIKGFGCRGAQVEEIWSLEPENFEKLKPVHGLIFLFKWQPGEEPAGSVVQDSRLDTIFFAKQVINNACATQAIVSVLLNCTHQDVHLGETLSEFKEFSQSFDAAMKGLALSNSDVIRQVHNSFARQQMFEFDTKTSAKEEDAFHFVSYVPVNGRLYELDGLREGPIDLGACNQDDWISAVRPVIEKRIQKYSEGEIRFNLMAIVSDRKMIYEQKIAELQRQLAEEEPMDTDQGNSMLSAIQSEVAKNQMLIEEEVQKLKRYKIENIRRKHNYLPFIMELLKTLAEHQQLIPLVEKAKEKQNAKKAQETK
#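 Schedule: 30 min plus 25 min, room temperature / Material: human UCH37 within purified proteasomes / Technique: AMC fluorescence intensity at 355/460 nm / Buffer or medium: pH 7.4 Tris-HCl (50 mM) with ovalbumin, ATP-MgCl2, DTT / Controls: wells without proteasome as full block, compound-free enzyme plus substrate as uninhibited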
# E coli growth = E. coli growth inhibition, primary screen, OD600; Escherichia coli growth, 23 h; hits give low values; OD600 absorbance (test concentration not listed); actives 0.21% (n = 330,000); AID 1053175, 2014;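 active means OD600 absorbance below the run mean of sample wells minus 3.6 SD, in any replicate, cut at about 0.56 in these data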;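 further: stock transfer was 300 nL into about 60 µL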
# Beta cell apopt = inhibitors of cytokine-induced beta cell apoptosis, primary screen, luminescence | INS-1E cytokine-induced death, ATP luminescence, 48 h; percent of positive-control rescue, neutral wells zero | protection from apoptosis, % (no concentration beside the values) | actives 0.8% (n = 300,000) | AID 435005, 2010;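 active means all replicates at 75% or more, or half of them and the mean; inconclusive means half reach 75% but not the mean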;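 further: 0% = cytokine-treated negative control wells and 100% = positive control rescue; higher means more ATP so stronger rescue from cytokine killing; wells of about 40 µL received 100 nL stock; the first replicate is given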
# AF4-AF9 inh = inhibitors of AF4 peptide binding to AF9, primary screen, biochemical, AlphaScreen, biotin-AF4 peptide, FLAG-AF9, single point; inhibition, % at 10 µM; actives 0.47% (n = 350,000); AID 651704, 2012;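 active means every replicate reaching a set inhibition limit, whatever the replicate mean, cut at about 25% in these data; inconclusive means mean inhibition reaches that limit but some replicates miss it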;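 further: 0% = plate neutral control median and 100% = total signal loss; the record names both 10 and 1 µM as test concentration; the first replicate is given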
# Target sequence (P42568 whole entry, looked up): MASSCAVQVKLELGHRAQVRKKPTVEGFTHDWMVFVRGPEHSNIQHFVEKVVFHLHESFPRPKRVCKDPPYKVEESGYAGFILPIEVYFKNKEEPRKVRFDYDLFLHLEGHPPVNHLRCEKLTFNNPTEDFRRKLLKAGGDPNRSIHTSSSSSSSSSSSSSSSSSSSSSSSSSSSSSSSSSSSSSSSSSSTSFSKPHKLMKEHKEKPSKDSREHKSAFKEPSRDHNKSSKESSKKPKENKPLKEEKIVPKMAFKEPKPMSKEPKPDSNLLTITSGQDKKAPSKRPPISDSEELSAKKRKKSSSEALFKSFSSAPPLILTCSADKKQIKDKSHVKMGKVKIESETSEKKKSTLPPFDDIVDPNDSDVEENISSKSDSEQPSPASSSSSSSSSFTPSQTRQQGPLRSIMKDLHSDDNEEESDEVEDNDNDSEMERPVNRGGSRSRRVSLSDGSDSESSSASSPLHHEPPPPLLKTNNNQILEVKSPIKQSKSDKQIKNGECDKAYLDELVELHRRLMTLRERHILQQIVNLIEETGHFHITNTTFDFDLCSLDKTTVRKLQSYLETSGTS
# FGF22 binding = binders of human FGF22 protein, primary screen, FGF22 synaptogenesis inhibitor project, biophysical, thermal shift, single point | recombinant FGF22 thermal shift, SYPRO orange fluorescence; percent of sucrose octasulfate shift, DMSO zero | actives 1.5% (n = 340,000) | Fibroblast growth factor 22 (Homo sapiens), Q9HCT0 | AID 651658, 2012 | calls only at 9.99 µM;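 active means melting point raised past a set limit in the mean and every replicate; inconclusive means no clear call; three in four hits are not shown here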
# Target sequence (Q9HCT0 whole entry, looked up): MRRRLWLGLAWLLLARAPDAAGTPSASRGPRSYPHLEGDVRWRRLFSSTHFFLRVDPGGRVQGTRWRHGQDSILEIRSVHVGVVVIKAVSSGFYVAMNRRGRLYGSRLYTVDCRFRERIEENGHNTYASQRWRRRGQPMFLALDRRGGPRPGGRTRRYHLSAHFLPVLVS
# rRNA inh HTS = reduced GFP signal of wild-type E. coli, primary screen, bacterial rRNA inhibitor project, GFP/RFP fluorescence, OD600, single point | E. coli WT GFP vs humanized-ribosome RFP mutants, 24 h; hits give low values; DMSO median 0, no signal -100 | GFP signal change (wild-type ribosome), % (no concentration beside the values) | actives 1.6% (n = 350,000) | AID 720706, 2013;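 active means significant combined selectivity score with lowered wild-type GFP, culture density cut under 30%, mutant RFP and density less affected; inactive means any of these conditions unmet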; further: one replicate is shown; some compounds called inactive have numbers as strong as hits
# T cruzi inh = inhibitors of intracellular T. cruzi growth, primary screen, luminescence, NIH3T3 host cells; T. cruzi beta-gal in NIH3T3, 90 h; inhibition, % (test concentration not listed); actives 1.4% (n = 300,000);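 active means mean inhibition across valid replicates above about 55%, limit read from the data; inconclusive means mean below that limit but half or more replicates reach it; inactive means mean below it, under half of replicates reach it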;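 further: signal also drops with host cell toxicity which is not excluded here; 0% = plate median of DMSO wells and 100% = zero luminescence signal; higher percent means less beta-gal luminescence so fewer parasites; stock transfer was 50 nL into about 50 µL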
# Bfl-1 A1 inh = caspase 3/7 activation in MEF A1-2A-BIM cells, primary screen, A1 inhibitor project, cell-based, luminescence, HTS; Caspase-Glo 3/7 luminescence, 3 h; percent of clofoctol response, vehicle zero; caspase activation, % (no concentration beside the values); actives 0.066% (n = 330,000);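 active means over half of replicate activation scores above 10%, or exactly half above 10 with the replicate mean above 10; inconclusive means replicate mean below 10 yet half the replicates above 10; inactive means over half of replicates below 10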;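 further: wells of about 30 µL received 50 nL stock; many hits fall short of the cut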
# rRNA inh HTS OD600 = recorded beside rRNA inh HTS, whose call it bears; OD600 change, %; measured here: OD600 growth;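 optical density of the mix in the first replicate; 0 = DMSO median and -100 = no signal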
# rRNA inh HTS RFP = further read-out of rRNA inh HTS, marked with its call; RFP signal change, %; measured here: RFP humanized mutant strains;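 first replicate; 0 = DMSO median and -100 = no signal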
# Numbers without * were called inactive; i = inactive; ? = inconclusive; nt = not tested or not shown.
structure	UCH37 DUB inh	E coli growth	Beta cell apopt	AF4-AF9 inh	FGF22 binding	rRNA inh HTS	rRNA inh HTS OD600	rRNA inh HTS RFP	T cruzi inh	Bfl-1 A1 inh
Cn1cc(Br)c(C(=O)N2CCc3ccccc32)n1	-0.2	0.66	2	nt	nt	nt	nt	nt	-6	-2.4
CCn1cc(C(=O)NCCC(C)C)c(=O)c2cc(S(=O)(=O)N3CCCCC3)ccc21	3.7	0.69	-2	nt	nt	nt	nt	nt	8	-0.3
O=C1CNC(=S)N1CCOc1ccccc1	1.9	0.67	-2	-1.6	i	5	5	0.6	3	-1.4
CCc1nc(SCC(=O)Nc2nnc(CC)s2)c2c(=O)n(C)c(=O)n(C)c2n1	4.6	0.71	-3	-1.3	i	19	18	1.7	-24	0.6
C/C=C1\NC(=O)[C@H](CC(N)=O)N(C)C(=O)C([C@@H](C)O)NC(=O)C(CCCc2ccc(OC)cc2)NC(=O)[C@H](C(C)C)NC(=O)/C(=C\C)NC(=O)[C@H](O)[C@@H](C[C@@H](O)CCCCCCC)NC(=O)[C@H](C)NC(=O)CN(C)C(=O)[C@H](CCC(N)=O)NC1=O (some centres undefined)	12	0.52*	nt	1.6	i	-22	-30	-8.3	nt	nt
Cc1noc(C)c1S(=O)(=O)NCc1ccc2c(c1)OCO2	1.0	0.74	-4	-9.4	i	5	7	4.1	-9	-0.3
COc1cc(C(=O)NCc2nnc(SCC(=O)Nc3c(C)cc(C)cc3C)o2)cc(OC)c1OC	0.6	0.68	-4	-1.2	i	6	6	1.1	8	0.2
CC1C(c2ccccc2)N(C)CCC12NC(=O)NC2=O (centres undefined)	0.4	0.67	-2	nt	nt	nt	nt	nt	-21	?
CCN1CCN(Cc2c(OC)ccc3ccccc23)CC1	6.9	0.7	-3	nt	nt	nt	nt	nt	7	1.5
CCCCn1c(N)c(N(Cc2ccccc2OC)C(=O)c2ccc(N3CCCC3=O)cc2)c(=O)[nH]c1=O	4.0	0.64	-3	-25	i	1	11	0.6	-8	0.5
NC(=O)COc1ccc(Nc2nnc(-c3ccc(O)cc3)c3ccccc23)cc1	5.5	0.68	1	0.1	i	-25*	-6.2*	-1.1*	-5	0.3
CC(=O)/C(N)=N/Nc1cccc(Cl)c1	2.6	0.61	-3	3.0	i	nt	nt	nt	5	-0.2
CC1(CCc2ccccc2)NC(=O)N(CC(=O)Nc2ccc3c(c2)OCCO3)C1=O (centres undefined)	3.2	0.68	-5	1.2	i	-34	-42	-5.9	11	-0.2
O=c1c2c(nc3cc(-c4ccccc4Cl)[nH]n13)CCS2	-16	0.67	10	0.3	i	3	3	3.4	-26	-6.5
C/C(=N\NC(=O)c1ccc(Cl)cc1)c1ccc2[nH]ccc2c1	nt	nt	-4	2.5	i	17	13	4.6	-4	0.8
CCCCn1c(C23CC4CC(CC(C4)C2)C3)n[nH]c1=S	1.4	0.6	nt	-9.5	i	-48	-72	-20	16	0.2
COCCn1nnnc1C(C(C)C)N1CCCC(C)C1 (centres undefined)	-0.4	0.69	-5	0.6	i	10	6	-5.4	-3	0.7
Brc1ccccc1-c1nnc(COc2ncnc3ccccc23)o1	0.6	0.72	-1	3.3	i	-16	-13	-3.5	-2	-0.3
COc1ccc(-n2nc(C(=O)NCC(=O)NCCCN3CCN(C)CC3)c3ccccc3c2=O)cc1	0.8	0.7	-8	-1.9	i	6	8	-1.4	-11	-0.1
CCCOc1ccc(-c2c(C(=O)N/N=C/c3ccccc3)nnn2-c2nonc2N)cc1	nt	nt	4	-8.8	i	6	17	0.9	11	1.0
CN(Cc1ccc(OC(F)F)cc1)C(=O)c1cccc(S(=O)(=O)N2CCN(c3ccccc3)CC2)c1	0.3	0.65	nt	0.2	i	-5	-6	2.7	nt	nt
CCNc1oc(COc2ccccc2F)nc1C#N	6.8	0.65	-7	nt	nt	nt	nt	nt	4	0.6
COc1cc(SC)ccc1C(=O)Nc1ccc(C)cc1	1.1	0.69	4	-0.6	i	-1	8	-0.6	14	-2.4
Cc1nn(C)c(Cl)c1S(=O)(=O)N[C@@H](c1ccccc1)[C@]1(C)C[C@H]1[C@@H](C)C(=O)Nc1ccc2ccccc2c1	-0.2	nt	15	0.1	i	3	-9	-0.4	nt	0.1
CSCC[C@H](NC(=O)[C@@H]1Cc2ccccc2CN1)C(=O)NC1CCCC1	-1.7	0.7	-6	0.2	i	2	14	-1.5	7	-2.1
COc1ccc(OC(=O)NCCc2ccccc2)cc1	0.6	0.65	-5	0.9	i	8	-8	0.6	-3	-1.0
COC(=O)Cc1c(O)ccn(Cc2ccc3c(c2)OCO3)c1=O	-0.4	0.68	-4	-2.5	i	18	7	1.4	-18	2.1
CCOc1ccccc1OCc1nn2c(-c3ccc(C)cc3)nnc2s1	0.9	0.67	1	nt	nt	-5	-2	-1.7	-4	0.6
CC(=O)NS(=O)(=O)c1ccccc1	-0.1	0.68	nt	nt	nt	nt	nt	nt	2	0.8
c1cc[n+](CCCC[n+]2ccccc2)cc1	2.8	0.66	0	-41	i	5	1	7.5	-15	-0.5
CNc1cc(C(F)(F)F)nc(-c2ccccn2)n1	4.5	0.73	-4	nt	nt	nt	nt	nt	-20	-0.3
C=CCN(CC(=O)Nc1c(C)cccc1CC)C(=O)SCCC	0.6	0.71	-9	nt	nt	nt	nt	nt	0	-0.2
CCOC(=O)N1CCN(CC(=O)Nc2ccc(Oc3ccccc3)cc2)CC1	4.5	0.7	2	nt	nt	nt	nt	nt	-2	-0.3
O=C(Cn1nc(-c2ccccc2)oc1=O)OCC(=O)c1ccccc1	0.3	0.65	-1	-3.0	i	8	15	-3.9	nt	1.2
CN(C)c1ccc(Cc2ccc(N(C)C)cc2)cc1	3.4	0.69	nt	46*	i	-2	5	-0.6	nt	nt
O=C(CCCc1ccccc1)Nc1ccnn1C1CCN(Cc2ccc(Cl)cc2)CC1	2.0	0.68	2	1.1	i	-53	-73	-14	13	0.8
CCOc1cccc(Oc2ccc(C(F)(F)F)cn2)c1	4.6	0.67	1	nt	nt	10	7	-0.9	-12	1.3
Cc1cc(C(F)F)n2nc(C(=O)Nc3cccc(C(F)(F)F)c3)nc2n1	-3.9	0.73	4	nt	nt	nt	nt	nt	1	0.1
COCCN(CC(=O)NCC1CCCO1)C(=O)CCC(=O)Nc1cc(C)ccn1 (centres undefined)	1.8	0.68	-1	nt	nt	nt	nt	nt	0	1.5
Cc1cc(C)n2nc(C(=O)Nc3cc(S(=O)(=O)N4CCCCC4)ccc3C)nc2n1	1.1	0.66	-2	-2.3	i	26	18	0.2	nt	0.4
Cc1cc2ccccc2n1CCNC(=O)C(C)Oc1ccccc1 (centres undefined)	0.4	0.79	4	4.6	i	-3	-5	4.4	63*	-0.2
CCC(C)[C@H](NC(=O)C1CCN(C(=O)[C@H](Cc2ccccc2)NS(=O)(=O)c2ccc(C)cc2)CC1)C(=O)O (some centres undefined)	5.5	0.67	1	4.0	i	14	10	-0.9	-1	0.5
COc1cc(/C=N/n2cc(-c3ccccc3)[nH]c2=S)cc(OC)c1O	nt	nt	-2	-12	i	34	2	18	-3	-0.2
Cc1nc(NC(=O)CN(C)S(=O)(=O)c2ccc(Br)cc2)sc1C	4.6	0.7	-2	nt	nt	nt	nt	nt	19	-1.0
CCCCOCCCNC(=O)c1ccccc1OCC	1.1	0.71	-1	-0.1	i	2	-2	7.4	5	-0.7
Cc1ccc(NC(=O)Nc2cnccn2)cc1Cl	-0.2	0.64	2	-1.6	i	16	24	-0.7	-22	-0.6
Cc1cc(=O)oc2ccc(OC(=O)CN3C(=O)c4cccc([N+](=O)[O-])c4C3=O)cc12	0.9	0.67	nt	-9.6	i	0	4	3.3	-15	-0.1
CCN(CC)c1ccc(C(=O)Nn2c(C)nc3ccccc3c2=O)cc1	6.3	0.67	5	0.7	i	-14	-18	-0.4	1	0.2
CSc1ccccc1NC(=O)c1ccccc1N(Cc1ccccc1)S(C)(=O)=O	6.5	0.71	1	-1.7	i	-24*	-6.7*	9.2*	9	0.1
CC1CC(C)(C)N(C(=O)NC2CCCCC2)c2ccccc21 (centres undefined)	3.3	0.63	-6	nt	nt	nt	nt	nt	-19	-0.2
CCOc1cc(/C=C2/NC(=O)NC2=O)cc([N+](=O)[O-])c1O	4.2	0.65	1	nt	nt	nt	nt	nt	-9	0.8
Cc1ccc(SCC(=O)NNC(=O)CCS(=O)(=O)c2ccc(C)cc2)cc1	0.3	0.64	-2	-2.1	i	nt	nt	nt	nt	-0.9
Cc1cc(C)nc(NS(=O)(=O)c2cccs2)c1	1.4	0.73	0	6.1	i	nt	nt	nt	-4	0.1
Cc1nc2ccc(C(=O)Nc3ccc(N(C)C)cc3)cc2s1	5.6	0.66	1	-11	i	-1	12	1.9	7	-1.2
O=C(CCc1ccccc1)NNC(=O)c1cccc(F)c1	1.3	0.68	-8	1.2	nt	2	6	0.4	4	-0.2
CC(CC1C(C#N)=C(N)SC(N)=C1C#N)c1ccccc1 (centres undefined)	6.5	0.71	22	nt	nt	nt	nt	nt	nt	0.2
O=C(COc1ccccc1)NC1=NCCS1	4.7	0.71	-12	nt	nt	nt	nt	nt	-3	-0.4
CC(=O)N1c2ccc(S(=O)(=O)N3CCC(C(=O)NCc4ccc(C)cc4)CC3)cc2CC1C (centres undefined)	0.1	0.65	6	-1.2	i	8	9	1.2	7	0.2
O=C(NC1CCCN(Cc2ccccc2F)C1)c1cccc(N2CCCC2=O)c1 (centres undefined)	-0.4	0.67	-1	-13	i	5	2	-0.2	5	0.6
O=C(NCCc1ccc(Cl)cc1)C1(c2ccccc2)CC1	5.7	0.71	-4	-1.2	i	-28	-44	-7.5	0	0.0
O=C(Cc1ccccc1F)Nc1ccc(S(=O)(=O)N2CCCCC2)cc1	3.9	0.74	-1	0.3	i	-20	-21	-2.8	-4	-0.6
Cc1ccc(Cl)c(Cn2cnc3c(cnn3C(C)(C)C)c2=O)c1F	1.4	0.64	4	-5.5	i	-44	-75	-12	nt	1.2
CS(=O)(=O)c1ccc(Cl)c(NC(=O)COC(=O)CCN2C(=O)C3CC=CCC3C2=O)c1 (centres undefined)	1.6	0.66	nt	-0.7	i	-1	4	-2.0	nt	nt

# An excerpt; the hit share may differ from the screen's.
